Assay outcomes as filed in PubChem BioAssay.
Sfp inh: blocks B. subtilis Sfp PPTase activity; Potency, µM, without a hit: max response, negative = inhibition, hits mostly inhibitors; Q9F4F7; Biochemical Sfp PPTase activity, qHTS; hit rate 3.5% among 310,000; active = well fitted inhibition curve with a large enough effect; inconclusive = small, poorly fitted or top-dose-only effect, or another doubt; inactive = no such curve, though single readings can be large or run the other way;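 also: the enzyme is Sfp with the accession as filed and its product quenches rhodamine fluorescence; potency is read from the fitted curve at half-maximal effect; 0% = enzyme reaction without inhibitor and -100% = no enzyme wells; top concentration of the series not given in the record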
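After 15 min at room temperature with compound, 15 nM Sfp received 5 uM rhodamine-CoA plus 12.5 uM BHQ-2-ybbR (50 mM Hepes pH 7.6, 10 mM MgCl2). Rate came from the fluorescence difference over 30 min, ex 525/em 598 nm.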
PINK1 modulator: modulators of PINK1 expression; PINK1 immunofluorescence, high-content cytometry, 24 h; Potency, µM (doses to about 76.6 µM), inactives show at the highest dose activation (PINK1 increase), actives largely listed as activators; hit rate 0.2% among 410,000; AID 624263; active = well fitted activation curve with a large enough effect; inconclusive = small, poorly fitted or top-dose-only effect; inactive = flat fitted curve, though single readings scatter; cell line not stated here;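 also: potency is read from the fitted curve at half-maximal effect; % of control where 0% means no effect; nearly all actives have a fitted effect of over 65% in size; a mitochondrial uncoupler was the plate control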
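Stable cell line treated 24 h with compounds at 5 concentrations (CCCP controls), then fixed and immunostained for PINK1 plus nuclear and cell stains; PINK1 immunofluorescence quantified by laser-scanning microplate cytometry.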
D2 agonist: human D2 receptor agonism in beta-arrestin assay; hit rate 0.084% among 360,000; activation, % (concentration not given with the values); P14416; DiscoveRx PathHunter D2 beta-arrestin, luminescence, 90 min; 100% = 57 uM dopamine signal; in the data active = activation above about 40%; inconclusive = about 15% to 40%; inactive = below about 15%; also: compound concentration not given in the record; the text of the record calls up to 30% inactive
Target sequence (P14416 whole entry, looked up): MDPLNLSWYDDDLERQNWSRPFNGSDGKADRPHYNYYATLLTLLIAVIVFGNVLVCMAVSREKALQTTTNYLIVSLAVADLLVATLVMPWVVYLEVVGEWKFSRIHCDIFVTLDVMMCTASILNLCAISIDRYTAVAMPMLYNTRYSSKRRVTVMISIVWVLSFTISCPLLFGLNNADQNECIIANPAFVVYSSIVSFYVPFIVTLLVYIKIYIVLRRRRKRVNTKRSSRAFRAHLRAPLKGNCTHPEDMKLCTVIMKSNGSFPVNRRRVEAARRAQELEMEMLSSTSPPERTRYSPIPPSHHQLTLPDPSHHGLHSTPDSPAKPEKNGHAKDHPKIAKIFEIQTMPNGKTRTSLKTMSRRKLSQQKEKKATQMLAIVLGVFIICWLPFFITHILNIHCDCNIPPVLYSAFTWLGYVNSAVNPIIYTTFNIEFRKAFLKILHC
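DiscoveRx PathHunter D2 beta-arrestin cells (2,100/well) attached overnight, then compound-stimulated 90 min at 37 C in HBSS/10 mM HEPES/0.1% Tween-20 buffer; beta-galactosidase complementation read by luminescence after 1 h at ambient temperature. Dopamine 57 uM final (EC100) as control.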
Menin MLL FP FL: displaces fluorescein MLL peptide from human menin. Fluorescence polarization, fluorescein-MLL peptide displacement from menin. FP activity change, % at 61.4 µM. 290,000 tested, under 10 active. AID 1766; inconclusive = falling polarisation curve, or a change in total fluorescence; inactive = total fluorescence flat and polarisation flat or rising; no compound was filed as active; the % refers to the polarisation; negative = inhibition;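 also: % of control where 0% means no effect; inhibitors lower the polarisation; unlabelled MLL peptide was the positive control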
ClpP mod: qHTS Assay for Activators of ClpP. ATP-dependent Clp protease proteolytic subunit (Bacillus subtilis (strain 168)), P80244. hit rate 1.9% among 340,000. Potency, µM (series often up to 57.5 µM), for inactives: top-dose activity change, negative = active. purified B. subtilis ClpP, FRET peptide cleavage, 20 min; active = well fitted falling curve with a large enough effect; inconclusive = small, poorly fitted or top-dose-only effect; inactive = no such curve, though single readings can be large or run the other way; also: potency is read from the fitted curve at half-maximal effect; the source files actives as falling curves though it sought activators and does not explain the sign; nearly all actives have a fitted effect of over 65% in size; many hits overshoot -100%
Target sequence (P80244 whole entry, looked up): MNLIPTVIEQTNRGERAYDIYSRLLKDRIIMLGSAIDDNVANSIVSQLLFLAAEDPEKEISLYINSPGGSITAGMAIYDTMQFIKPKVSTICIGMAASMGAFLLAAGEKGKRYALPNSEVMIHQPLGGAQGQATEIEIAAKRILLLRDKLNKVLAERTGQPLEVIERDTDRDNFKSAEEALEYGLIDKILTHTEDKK
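ClpP 10 microg/mL final, pH 8 Tris/KCl buffer with BSA, glycerol, Tween-20; compound pinned in; FRET-FV substrate; RT 20 min; Ex320/Em430; ΔFRET vs ADEP 5.8 microM, DMSO, no enzyme.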
gsp antagonist: gsp mutant antagonism; hit rate 0.4% among 340,000; gsp-mutant cells, cAMP HTRF, 30 min; control for the full effect not named in the record; Potency, µM (top dose mostly 76.9 µM), for inactives: at the top dose activity change, negative = inhibition, hits mostly inhibitors; active = falling curve of any shape with a large fitted effect; inconclusive = falling curve, mostly with a smaller effect; inactive = flat or rising curve; cell line not stated here;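 also: intracellular cAMP measured with PDE inhibitor Ro 20-1724 present during compound exposure; potency is read from the fitted curve at half-maximal effect; % is scaled to controls: 0 for no effect and ±100 for the full control effect; nearly all actives have a fitted effect of over 65% in size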
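Cells in G418 medium, seeded 16-24 h, 37C; buffer exchange to DPBS + 1 mM CaCl2, 0.5 mM MgCl2, 0.05% BSA; cpds in DMSO + […] (300 uM stock), 30 min 37C; HTRF cAMP detection.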
gsp agonist: activates gsp, the McCune-Albright syndrome mutation. hit rate 0.13% among 340,000. gsp mutant cells, cAMP HTRF, 30 min; control for the full effect not named in the record. Potency, µM (highest dose often 76.9 µM), without a hit: at the top dose activation (cAMP increase), usual class: activators; active = well fitted activation curve with a large enough effect; inconclusive = small, poorly fitted or top-dose-only effect, or another doubt; inactive = no such curve, though single readings can be large or run the other way; cell line not stated here;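 also: phosphodiesterase inhibitor Ro 20-1724 added with compounds to block cAMP breakdown; potency is read from the fitted curve at half-maximal effect; nearly all actives have a fitted effect of over 60% in size; about a fifth of the inactives were tested at one dose only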
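Cells stably selected in G418 were plated at 2000/well, grown 16-24 hr, then given compounds in DMSO with the PDE inhibitor […] (300 uM solution added) for 30 min at 37C; cAMP was read by HTRF.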
* = called active by the depositor; ? = inconclusive; / = no result given; [ ] = another dose, or the depositor's remark.

1: CCCCOC(=O)c1ccc(NC(=O)c2c(OC)cccc2OC)cc1
2: NS(=O)(=O)c1ccc(CCNC(=O)c2ccccc2OCc2ccc(F)cc2)cc1
3: CCN(CC)S(=O)(=O)c1cc(OC)c(Cl)cc1OC
4: O=C(CCc1ccc(S(=O)(=O)NC2CCCCC2)cc1)Nc1ccccc1
5: O=C(c1cnc(-c2ccccc2)s1)c1ccc(Cl)cc1Cl
6: CC(=O)Nc1ccc(NC(=O)CSc2nnnn2-c2ccccc2F)cc1
7: Cc1cccc(NC(=O)c2cc(-c3c(C)cc(C)cc3O)n[nH]2)c1
8: CC(C)N1C(=O)C2C(C(=O)NC3CCCCC3)C3C=CC2(O3)C1C(=O)NC1CCCCC1 (stereo unspecified)
screen / no.	1	2	3	4	5	6	7	8
D2 agonist	-6.6	1.8	1.3	0.6	-2.0	-5.1	1.2	-4.8
gsp agonist	11µM*	28%	9%[15.4 µM]	-32%[inhibitor]	?	-4%	13%	-8%
Sfp inh	-5%	15%	11%	18%	-1%	1%	16%	17%
PINK1 modulator	2.1%	2.7%	-0.4%	-0.4%	-18%[38.3 µM]	3.4%	3.9%	-0.9%
gsp antagonist	-17%	-4%	-2%	-11%	12%	3%	2%	7%
Menin MLL FP FL	-0.8	0.7	-1.3	0.9	4.0	1.0	4.3	1.5
ClpP mod	-0.6%	/	/	-1.8%	-2.2%	0.3%	/	-0.2%

9: C=CCOc1nc2c(c(=O)n(C)c(=O)n2C)n1Cc1ccccc1Cl
10: CC1(C)CC2(CCO1)OC(=O)CC2C(=O)NCc1ccccc1 (stereo unspecified)
11: COc1ccc(-c2nnc(SCC(C)C)o2)cc1
12: Cc1ccc(C(=O)N/C(=C\c2cccs2)C(=O)NCCc2c[nH]c3ccccc23)cc1
13: CCN(CC)Cc1c(C(=O)OC)nnn1-c1nonc1N
14: Cc1ccc(C(=O)NC2CC(C)(C)NC(C)(C)C2)cc1
15: Cc1cc(C)n2cc(CSc3nnc(-c4ccccc4)o3)nc2n1
16: Cc1c(C(=O)N/N=C/c2ccncc2)no[n+]1[O-]
screen / no.	9	10	11	12	13	14	15	16
D2 agonist	3.4	0.0	3.0	-6.8	-0.7	-2.3	-0.6	-1.5
gsp agonist	4%	-4%	23%[15.4 µM]	-48%[inhibitor]	5%	-4%	5%	13%
Sfp inh	4%	12%	-2%	12%	5%	19%	6%	-7%
PINK1 modulator	8.4%[38.3 µM]	-1.5%	6.1%	-1.9%	-1.5%	1.2%	-0.8%	-1.1%
gsp antagonist	?	4%	-8%	-28%	7%	5%	-11%	6%
Menin MLL FP FL	5.8	-1.2	-0.7	1.7	5.0	0.2	0.4	-0.4
ClpP mod	-1.0%	0.8%	/	0.7%	-2.4%	/	?	1.8%

17: CCC(c1nnnn1C(C)(C)CC)N(CCCO)Cc1cc2cc(C)cc(C)c2[nH]c1=O (stereo unspecified)
18: COc1ccc2[nH]c(C)c(-c3csc(N)n3)c2c1
19: O=C(COC(=O)C1CC1)Nc1c(Cl)cccc1C(F)(F)F
20: O=C(NCc1ccccc1)c1cccc(S(=O)(=O)N2CCOCC2)c1
21: O=C(Cn1ncc2c(=O)oc3ccccc3c21)N1CCCN(Cc2ccccc2F)C1
22: O=C(NCC(=O)N1CCC2(CC1)NCCc1[nH]cnc12)c1cccc(Cl)c1
23: CN(C)c1ccc(/C=C/c2cccc[n+]2[O-])cc1
24: COc1cccc(C(=O)Nc2ccc(S(=O)(=O)Nc3cc(C)nc(C)n3)cc2)c1
screen / no.	17	18	19	20	21	22	23	24
D2 agonist	-4.0	-3.9	-6.0	0.0	-5.0	5.2	-2.0	-1.8
gsp agonist	-40%[inhibitor]	-2%	3%[15.4 µM]	20%	-40%[inhibitor]	-1%	9%[15.4 µM]	-7%
Sfp inh	-15%	6%	/	1%	21%	13%	8%	12%
PINK1 modulator	-0.1%	1.7%	-0.6%	-0.1%	0.6%	0.6%	-0.7%	0.3%
gsp antagonist	-2%	5%	8%	12%	2%	4%	?	-2%
Menin MLL FP FL	1.7	2.9	/	3.0	1.5	/	?	-5.0
ClpP mod	-6.7%	-4.7%	-2.7%	-1.0%	1.5%	-0.2%	/	/

Arranged by SMILES length (falling): 3 of the compounds above
7: Cc1cccc(NC(=O)c2cc(-c3c(C)cc(C)cc3O)n[nH]2)c1
10: CC1(C)CC2(CCO1)OC(=O)CC2C(=O)NCc1ccccc1 (stereo unspecified)
16: Cc1c(C(=O)N/N=C/c2ccncc2)no[n+]1[O-]
screen / no.	7	10	16
D2 agonist	1.2	0.0	-1.5
gsp agonist	13%	-4%	13%
Sfp inh	16%	12%	-7%
PINK1 modulator	3.9%	-1.5%	-1.1%
gsp antagonist	2%	4%	6%
Menin MLL FP FL	4.3	-1.2	-0.4
ClpP mod	/	0.8%	1.8%

Going on with the list.
25: CC(=O)Nc1ccc(NC(=O)CSc2ccc3nnc(CCNC(=O)c4ccccc4)n3n2)cc1
26: CCCCNC(=O)CSc1nc2ccccc2n1S(=O)(=O)c1ccc(Br)cc1
27: Cc1cccc(S(=O)(=O)NCCc2ccccc2)c1
28: COCCNC(=O)C1CCC(CNS(=O)(=O)c2ccc3c(c2)CC(C)N3C(=O)C2CC2)CC1 (stereo unspecified)
29: CC(=O)c1ccc([N+](=O)[O-])cc1
30: CC(=O)c1cc(F)c(N2CCN(C(=O)Cc3ccccc3)CC2)cc1C
31: O=C(CSc1nccc(-c2cccs2)n1)Nc1cccc(Cl)c1
32: O=C(Nc1ccc(C(=O)N2CCOCC2)cc1)c1cc(-c2cccnc2)nc2ccc(Br)cc12
screen / no.	25	26	27	28	29	30	31	32
D2 agonist	-2.0	-4.3	-4.9	0.7	3.0	2.8	-2.0	2.9
gsp agonist	?	?	-2%[15.4 µM]	-27%	/	-5%	3%[15.4 µM]	-2%[15.4 µM]
Sfp inh	13%	-1%	20%	6%	/	6%	29%	-1%
PINK1 modulator	0.3%	1.0%	-2.1%	-1.0%	-0.9%	0.4%	-0.8%	1.7%
gsp antagonist	-9%	7%	-8%	-1%	2%	-1%[15.4 µM]	-17%	-7%
Menin MLL FP FL	2.3	6.5	-0.4	/	/	0.7	4.0	-2.6
ClpP mod	-0.5%	-0.4%	-3.4%	0.7%	0.4%	-2.5%	/	-1.5%

33: Cc1ccc(NC(=O)CCNC(=O)c2ccc([N+](=O)[O-])cc2)cc1C
34: Cc1ccccc1NC(=O)CSc1nccn1Cc1ccco1
35: C=C(C)Cc1c(C)c(C#N)c2nc3ccccc3n2c1NCCCN(C)C
36: CC(C)(C)NC(=O)C(c1ccc(F)cc1)N(Cc1ccccc1Cl)C(=O)c1ccn[nH]1 (stereo unspecified)
37: CN(C(=O)COC(=O)c1cc(-c2ccco2)nc2ccccc12)C1CCS(=O)(=O)C1 (stereo unspecified)
38: CCCN=C1CC(C)(C)CC(=O)/C1=C(/O)CCC
39: COc1ccc(OC)c(/C=N/NC(=O)c2ccc(N(C)S(=O)(=O)c3ccccc3)cc2)c1
40: CC(Oc1cc2oc(=O)c3c(c2cc1Cl)CCC3)C(=O)NCCCN1CCOCC1 (stereo unspecified)
screen / no.	33	34	35	36	37	38	39	40
D2 agonist	3.4	0.0	3.7	-2.1	1.2	-1.4	2.1	-1.1
gsp agonist	11%[15.4 µM]	-45%[inhibitor]	15%[15.4 µM]	8%	?	8%[15.4 µM]	?	17%
Sfp inh	5%	/	-4%	24%	28µM*	22%	10%	10%
PINK1 modulator	-0.5%	-0.2%	-0.8%	1.5%	1.1%	0.3%	-0.1%	0.5%
gsp antagonist	7%	/	-3%	-5%	-3%	8%	-5%	2%
Menin MLL FP FL	6.2	/	11	0.5	?	3.2	0.5	-4.4
ClpP mod	/	1.0%	-0.5%	1.1%	3.1%	/	3.8%	/

Profiles, looked up by structure. Order of values: D2 agonist, gsp agonist, Sfp inh, PINK1 modulator, gsp antagonist, Menin MLL FP FL, ClpP mod
COc1ccc(-c2nnc(SCC(C)C)o2)cc1 is listed with 3.0, 23%[15.4 µM], -2%, 6.1%, -8%, -0.7, /
Cc1ccc(C(=O)NC2CC(C)(C)NC(C)(C)C2)cc1 is listed with -2.3, -4%, 19%, 1.2%, 5%, 0.2, /
Cc1ccc(C(=O)N/C(=C\c2cccs2)C(=O)NCCc2c[nH]c3ccccc23)cc1 is listed with -6.8, -48%[inhibitor], 12%, -1.9%, -28%, 1.7, 0.7%

Continued:
41: Cc1cc(C(=O)CSc2nc(N)cc(N)n2)c(C)n1C1CC1
42: CCc1ccc(NC(=O)C(=S)NC2CCCCC2)cc1
43: CN(C)c1oc(-c2ccccc2)nc1C#N
44: COc1cc(OC)cc(C(=O)N[C@H](C(=O)Nc2ccc(F)cc2F)C(C)C)c1
45: O=C(CSc1nnc(CNC(=O)c2ccccc2F)o1)NCCc1ccccc1
46: CCc1nc2c(OCCOc3ccc(F)cc3)cccn2c1N(C=O)Cc1ccccc1
47: Cc1ccn2c(=O)cc(C)nc2c1
48: O=S(=O)(c1ccccc1)N1C2CCC1CC(O)(c1cccnc1)C2 (stereo unspecified)
49: CC(=O)Nc1cccc(NC(C)=C(C#N)C#N)c1
50: Cc1cc(/C=C(\C#N)C(=O)O)c(C)n1CCC(C)C
51: O=C(COC(=O)c1ccc2ccccc2n1)NCc1ccccc1
screen / no.	41	42	43	44	45	46	47	48	49	50	51
D2 agonist	0.5	0.5	-3.8	-3.6	-1.2	-2.5	-0.3	-2.8	0.9	-0.1	-2.0
gsp agonist	21%[15.4 µM]	-25%[15.4 µM]	1%	-6%	8%	/	5%[15.4 µM]	25%	-10%	9%[15.4 µM]	2%
Sfp inh	-25%	-5%	17%	14%	0%	/	6%	-5%	9%	-3%	-3%
PINK1 modulator	2.1%	9.1%	-3.3%[38.3 µM]	3.6%	-0.5%	0.5%	1.5%	-2.1%	-1.6%	-1.8%	2.8%
gsp antagonist	-1%	-4%	0%	-2%	-2%	/	3%	17%	10%	-11%	14%
Menin MLL FP FL	?	-1.2	1.2	3.2	-1.6	/	3.9	-1.7	8.6	-0.4	?
ClpP mod	/	-2.4%	?	-6.2%	0.0%	-2.0%	/	1.4%	-7.6%	/	-0.5%
